Screens: PubChem BioAssay, National Center for Advancing Translational Sciences (NCATS)
Menin MLL FP FL – inhibitors of human menin-MLL interaction, wild-type MLL peptide; Fluorescence polarization, fluorescein-MLL peptide displacement from menin; FP activity change, % at 61.4 µM; 290,000 tested, under 10 active; inconclusive = falling polarisation curve, or a change in total fluorescence; inactive = total fluorescence flat and polarisation flat or rising; no compound was filed as active; the % refers to the polarisation; negative = inhibition;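 further: % of control where 0% means no effect; inhibitors lower the polarisation; unlabelled MLL peptide was the positive control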
ClpP mod – qHTS Assay for Activators of ClpP | ATP-dependent Clp protease proteolytic subunit (Bacillus subtilis (strain 168)), P80244 | Potency, µM (top dose mostly 57.5 µM), without a hit: top-dose activity change, negative = active | AID 651965, 2013 | purified B. subtilis ClpP, FRET peptide cleavage, 20 min | 1.9% of 340,000 active; active = well fitted falling curve with a large enough effect; inconclusive = small, poorly fitted or top-dose-only effect; inactive = no such curve, though single readings can be large or run the other way; further: potency means the concentration at half of the fitted maximal effect; the source files actives as falling curves though it sought activators and does not explain the sign; nearly all actives have a fitted effect of over 65% in size; many hits overshoot -100%
Target sequence (P80244 whole entry, looked up): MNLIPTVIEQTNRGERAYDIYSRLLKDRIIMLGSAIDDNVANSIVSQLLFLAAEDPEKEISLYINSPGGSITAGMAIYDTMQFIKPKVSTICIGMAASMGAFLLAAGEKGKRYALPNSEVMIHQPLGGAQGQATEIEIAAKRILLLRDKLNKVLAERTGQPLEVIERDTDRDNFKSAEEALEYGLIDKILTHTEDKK
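ClpP 10 microg/mL final, pH 8 Tris/KCl buffer with BSA, glycerol, Tween-20; compound pinned in; FRET-FV substrate; RT 20 min; Ex320/Em430; ΔFRET vs ADEP 5.8 microM, DMSO, no enzyme.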
Sfp inh – Sfp phosphopantetheinyl transferase inhibition; Biochemical Sfp PPTase activity, qHTS; Potency, µM, inactives show max response, negative = inhibition, usual class: inhibitors; Q9F4F7; 3.5% of 310,000 active; AID 1490; active means well fitted inhibition curve with a large enough effect; inconclusive means small, poorly fitted or top-dose-only effect, or another doubt; inactive means no such curve, though single readings can be large or run the other way;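 further: the enzyme is Sfp with the accession as filed and its product quenches rhodamine fluorescence; potency means the concentration at half of the fitted maximal effect; 0% = enzyme reaction without inhibitor and -100% = no enzyme wells; top concentration of the series not given in the record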
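Reaction rates are the 30-min fluorescence difference (ex 525, em 598 nm) in wells containing 15 nM Sfp, 5 uM rhodamine-CoA and 12.5 uM BHQ-2-YbbR at pH 7.6 with 10 mM MgCl2.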
gsp antagonist – antagonists of gsp mutant (McCune-Albright syndrome); 0.4% of 340,000 active; gsp-mutant cells, cAMP HTRF, 30 min; control for the full effect not named in the record; Potency, µM (highest dose often 76.9 µM), inactives show at the highest dose activity change, negative = inhibition, actives largely listed as inhibitors; active = falling curve of any shape with a large fitted effect; inconclusive = falling curve, mostly with a smaller effect; inactive = flat or rising curve; cell line not stated here;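 further: intracellular cAMP measured with PDE inhibitor Ro 20-1724 present during compound exposure; potency means the concentration at half of the fitted maximal effect; on the % scale 0 is the no-effect control and ±100 the full control effect; nearly all actives have a fitted effect of over 65% in size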
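G418-selected cells were plated in DMEM/10% FBS for 16-24 h at 37C, then treated with compounds plus the PDE inhibitor […] (300 uM solution added) for 30 min at 37C. Intracellular cAMP was measured by HTRF after 30 min lysis at room temperature.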
D2 ag – activates the human D2 dopamine receptor; P14416; DiscoveRx PathHunter D2 beta-arrestin, luminescence, 90 min; 100% = 57 uM dopamine signal; activation, % (test concentration not listed); 0.084% of 360,000 active; AID 624465; in the data active = activation above about 40%; inconclusive = about 15% to 40%; inactive = below about 15%; further: compound concentration not given in the record; the text of the record calls up to 30% inactive
Target sequence (P14416 whole entry, looked up): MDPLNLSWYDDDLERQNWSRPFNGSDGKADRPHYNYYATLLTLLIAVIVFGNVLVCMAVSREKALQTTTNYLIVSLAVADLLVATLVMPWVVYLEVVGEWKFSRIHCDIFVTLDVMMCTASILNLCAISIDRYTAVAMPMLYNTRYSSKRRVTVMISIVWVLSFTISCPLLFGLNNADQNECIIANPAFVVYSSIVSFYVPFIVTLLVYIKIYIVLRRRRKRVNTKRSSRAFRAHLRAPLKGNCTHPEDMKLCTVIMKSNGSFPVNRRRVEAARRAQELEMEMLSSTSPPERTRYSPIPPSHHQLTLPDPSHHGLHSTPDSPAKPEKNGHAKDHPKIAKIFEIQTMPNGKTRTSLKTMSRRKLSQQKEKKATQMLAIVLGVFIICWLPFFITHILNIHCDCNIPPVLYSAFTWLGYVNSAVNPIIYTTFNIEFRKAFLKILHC
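Agonist mode: compounds alone added to overnight-plated D2 PathHunter cells for 90 min at 37 C, with 57 uM final dopamine (EC100) defining full response. Beta-arrestin recruitment detected by chemiluminescent reagent, read after 1 h at ambient temperature.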
PINK1 modulator – modulators of PINK1 expression | AID 624263 | Potency, µM (top dose mostly 76.6 µM), for the others: top-dose activation (PINK1 increase), actives largely listed as activators | PINK1 immunofluorescence, high-content cytometry, 24 h | 0.2% of 410,000 active; active = well fitted activation curve with a large enough effect; inconclusive = small, poorly fitted or top-dose-only effect; inactive = flat fitted curve, though single readings scatter; cell line not stated here;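 further: potency means the concentration at half of the fitted maximal effect; % of control where 0% means no effect; nearly all actives have a fitted effect of over 65% in size; a mitochondrial uncoupler was the plate control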
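PINK1 protein level read as immunofluorescence by microplate cytometer in a fixed, stained stable cell line after 24 h exposure to five compound concentrations, with CCCP as control.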
gsp ag – activates gsp, the McCune-Albright syndrome mutation | gsp mutant cells, cAMP HTRF, 30 min; control for the full effect not named in the record | Potency, µM (series often up to 76.9 µM), for the others: at the highest dose activation (cAMP increase), most hits filed as activators | 0.13% of 340,000 active | AID 624287; active = well fitted activation curve with a large enough effect; inconclusive = small, poorly fitted or top-dose-only effect, or another doubt; inactive = no such curve, though single readings can be large or run the other way; cell line not stated here;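 further: phosphodiesterase inhibitor Ro 20-1724 added with compounds to block cAMP breakdown; potency means the concentration at half of the fitted maximal effect; nearly all actives have a fitted effect of over 60% in size; about a fifth of the inactives were tested at one dose only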
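Cells stably selected in G418 were plated at 2000/well, grown 16-24 hr, then given compounds in DMSO with the PDE inhibitor […] (300 uM solution added) for 30 min at 37C; cAMP was read by HTRF.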
Starred values were filed as active, the others as inactive; ? = inconclusive; . = no result given; & = joins results of further samples; [ ] = another dose, or the depositor's remark. This is a random part of the collection; any-hit rate near 5.1%.

SMILES	Menin MLL FP FL	ClpP mod	Sfp inh	gsp antagonist	D2 ag	PINK1 modulator	gsp ag
O=C(NC1(C(F)(F)F)N=C2SCCN2C1=O)c1ccccc1 (stereo unspecified)	-0.1	-1.6%	-2%	1%	-1.8	.	1%
COc1ccc(/C=N/NC(=O)Cc2csc(Nc3cccc(C(F)(F)F)c3)n2)cc1C	-0.8	-3.6%	3%	3%	-4.5	5.5%	-10%
Cc1cccc(C)c1OCC(O)CN(Cc1ccccc1O)C1CCCCC1 (stereo unspecified)	-4.3	.	9%	-7%	-2.2	23%	2%
CCOCCc1c(O)nc(SCC)[nH]c1=O	4.6	.	16%	-1%	-2.4	-0.6%	24%[15.4 µM]
CC(C)CCOc1ccc(C(CC(N)=O)C(=O)O)cc1 (stereo unspecified)	-1.5	-30%	8%	4%	-1.2	0.2%	-14%
Cc1nc2ccccc2c(-c2ccccc2)c1CC(=O)O	-2.9	-0.1%	7%	-1%	-1.7	-1.8%	0%
C/C(=N/NC(=O)CNC(=O)C1COc2ccccc2O1)c1ccc([N+](=O)[O-])cc1 (stereo unspecified)	6.9	.	19%	-5%	-0.1	1.1%	0%
CCOc1ccc(CNC(=O)C2CCN(c3nn4c(=O)cc(C)nc4s3)CC2)cc1	-1.9	0.4%&-4.2%	3%	-15%	-2.0	0.0%&-0.6%	15%
CCc1cccc2c(C(=O)COC(=O)[C@@H]3CC(O)CN3S(=O)(=O)c3ccccc3[N+](=O)[O-])c[nH]c12 (stereo partly specified)	.	.	.	-13%	-5.1	-1.0%	9%
CC(C)C(CCNC(=O)CC(Cc1ccccc1)c1ccco1)c1ccco1 (stereo unspecified)	?	-3.4%	-27%	-16%	-0.9	-5.3%[38.3 µM]	7%
COc1ccc(NC(=O)CNC(=O)N2CC(=O)Nc3ccccc32)cc1OC	-0.2	0.7%	11%	-1%	1.1	-0.7%	-6%
O=C(CCN1CCN(c2ccccc2)CC1)NNC(=S)Nc1ccccc1Cl	1.4	.	2%	-9%	7.0	2.1%	23%[15.4 µM]
CCCCN1C[C@H](c2ccc(Br)cc2)[C@@H](CC(=O)Nc2ccc(Br)cc2)C1=O	.	-0.9%	.	.	-2.7	1.0%	?
COc1ccc(Cc2nnc(NC(=O)Nc3ccccc3F)s2)cc1	-2.0	1.8%	-1%	-2%	-0.9	15%	0%
COc1cccc(NC(=O)N2CCCC2C(=O)NC2CCCC2)c1 (stereo unspecified)	.	.	13%	5%	4.8	3.1%	1%
COc1ccc(C=NCC2OCCc3ccccc32)cc1OC (stereo unspecified)	0.5	-1.2%	-1%	5%	-2.0	0.3%	-27%
CC1(NC(=S)N(CCO)CCO)CCS(=O)(=O)C1 (stereo unspecified)	-4.3	1.1%	3%	15%	-1.3	3.3%	1%[15.4 µM]
CC(=O)N1C(=O)N(C(C)=O)C2C1N(C)C(=O)N2C(C)=O (stereo unspecified)	1.3	.	9%	6%	-2.0	3.5%	-9%
CN=C1S/C(=C\c2ccc(O)c(OC)c2)C(=O)N1C	.	-0.1%	.	-10%	-0.1	1.3%	12%[15.4 µM]
CCc1nn(CC(=O)N2CCN(c3cc(C)ccc3C)CC2)c(=O)c2cc3occc3n12	.	0.0%&-1.7%	18%	3%	6.2	3.8%&1.3%	?
CCOc1ccc2[nH]c3c(NCCc4ccc(OC)c(OC)c4)ncnc3c2c1	5.1	.	2%	-25%	5.4	1.2%	?
Cc1ccc(Cl)cc1N(CC(=O)NCc1ccc2c(c1)OCO2)S(C)(=O)=O	-1.9	-19%	12%	-11%	-1.3	1.6%	-4%[15.4 µM]
COc1cccc(Oc2cnc(N)nc2-c2ccc(OC)cc2O)c1	-1.1	2.1%	-10%	-5%	-1.2	-3.5%	18%
O=C(/C=C/c1ccc(F)cc1)NCC1(c2ccccc2)CCOCC1	-0.2	.	-11%	-2%	0.5	2.1%	-48%[inhibitor]
COCCN(CC(=O)NC1CCCCC1)C(=O)/C=C/C(=O)c1ccc(OC)cc1O	8.6	.	0%	.	-7.9	-2.3%	23%[15.4 µM]
New compounds follow:
SMILES	Menin MLL FP FL	ClpP mod	Sfp inh	gsp antagonist	D2 ag	PINK1 modulator	gsp ag
CC#CC[N+](C)(CC#CC)CC(=O)c1ccccc1	-4.5	-0.8%	14%	7%	-5.3	1.6%	-54%[inhibitor]
COc1cc(CNCc2ccccn2)ccc1OCC(=O)NC1CCCCC1	-1.8	1.7%	?	16%	13	0.3%	-25%
Cc1nn(CC(=O)NCCCc2ccccc2)c(C)c1[N+](=O)[O-]	1.0	.	13%	-42%	-5.4	4.6%	-6%[15.4 µM]
CCCCn1c(SCc2ccc(Cl)cc2)nc2c1c(=O)[nH]c(=O)n2C	3.2	-3.3%	?	1%	-0.4	3.3%	-41%[inhibitor]
Cc1ccc(C(=O)NNCC(=O)Nc2ccc(Cl)cc2F)cc1	.	-0.9%	.	-5%	-3.8	2.4%	-42%[inhibitor]
Cn1cnc2c(=O)sc3ccccc3c21	.	.	.	1%	-3.7	-1.9%	?
COc1ccc(N2CCN(C(c3cc(OC)ccc3OC)c3nnnn3CC3CCCO3)CC2)cc1 (stereo unspecified)	3.1	-2.8%	15%	-15%	-0.9	-2.7%	-37%[inhibitor]
O=C(NCC1CC1)C1Cc2c(-c3ccc(Cl)cc3)ccnc2O1 (stereo unspecified)	.	-12%	.	.	-2.6	0.9%	.
CCc1cc(-c2n[nH]c(=S)n2CC(C)C)cs1	5.7	-8.2%	-14%	-3%	3.5	0.1%	6%
CCOc1ccc(C(C)(C)C)cc1S(=O)(=O)Nc1ccncc1	-4.0	0.4%	2%	6%	-3.4	2.5%	-3%
CCOC(=O)c1c(C)[nH]c(C(=O)Nc2cc(OCC)c(N3CCOCC3)cc2OCC)c1C	.	27%	.	-1%	-2.2	2.2%	-42%[inhibitor]
Cc1c(-n2c(SCC(=O)O)nnc2-c2ccccc2Br)c(=O)n(-c2ccccc2)n1C	1.9	-3.0%	-3%	9%	-3.6	1.7%	?
COc1ccccc1CNc1ncnc2ccc(-c3ccc(C(=O)N(C)C)cc3)cc12	0.6	.	6%	.	.	1.6%	.
O=C(COc1ccc(Br)cc1Cl)NNC(=O)c1ccccc1	.	1.1%	.	1%	-4.6	2.8%	-34%[inhibitor]
N#C/C(=C/c1ccccc1OCc1ccc(F)cc1)c1ccc(C(=O)O)cc1	-5.8	0.5%	4%	?	-4.2	-0.8%	-30%[inhibitor]
CCc1ccc(OC2=NS(=O)(=O)c3ccccc32)cc1	-2.0	-3.5%	-27%	-3%	-1.9	-0.4%	-68%[inhibitor]
CCOc1cc(C)c(C(C)C)cc1S(=O)(=O)N1CC(C)OC(C)C1 (stereo unspecified)	0.8	-4.1%	-1%	-11%	1.6	2.8%	14%
Cc1cccc(/C=N/NC(=O)c2ccc(NC(=O)c3ccc(Cl)cc3)cc2)n1	-1.3	.	13%	1%	-2.7	9.2%	39%
C#CCN1C(C)=CC(=O)[C@@H](O)[C@H]1c1ccccc1Br	.	-0.6%	.	8%	-0.3	0.1%	.
Cc1cc(C)cc(CN2CCC(Oc3ccc(C(=O)N4CCCC4)cc3)CC2)c1	-0.9	0.2%	12%	-16%	-8.4	0.4%	-19%
CCOC(=O)c1c(NC(C)=O)sc2c(OC)cccc12	1.0	-20%	9%	-1%	3.8	3.9%	-5%
Cc1cc(N(C)C)nc(SC(C)C)n1	0.0	1.3%	0%	-6%	-4.5	6.4%	4%
Cc1ccc(NCC(=O)N/N=C/c2cccc(Br)c2)cc1	-2.9	-0.6%	2%	6%	-2.4	12%	-20%
COc1cccc(C(=O)C2CCCN(Cc3ccc(OC)c(Cn4cncn4)c3)C2)c1 (stereo unspecified)	-1.7	.	26%	-7%	-2.8	0.4%	-11%[15.4 µM]
COc1c2ccoc2c(OC[C@@H](O)C(C)(C)OC)c2oc(=O)ccc12	-0.2	-19%	-6%	9%	-1.9	0.5%	1%
Going on with the list:
SMILES	Menin MLL FP FL	ClpP mod	Sfp inh	gsp antagonist	D2 ag	PINK1 modulator	gsp ag
COc1ccc(C)cc1-n1nnnc1SCc1cc(=O)n2cc(C)ccc2n1	0.9	-9.9%	0%	?	8.6	-1.1%	-18%
COc1ccc(NC(=O)CN2CCN(S(=O)(=O)N3CCCCCC3)CC2)cc1	-0.8	0.4%	15%	-15%	3.8	1.0%	-1%[15.4 µM]
CCOc1ccc(-c2cn[nH]c2N)cc1	-2.9	-1.7%	1%	16%	-0.1	5.9%[38.3 µM]	-61%[inhibitor]
[O-][N+](=Cc1ccccc1)c1ccc(Cl)cc1	.	-2.9%	.	-1%	-4.0	-3.2%	1%
Cc1noc(C)c1S(=O)(=O)N(Cc1ccccc1)C(C)C	1.3	1.2%	1%	5%	-2.2	1.6%	-4%[15.4 µM]
Cn1ccc(C(=O)Nc2cccnc2Cl)n1	-5.4	-0.1%	13%	7%	3.8	0.9%	?
Cc1cc2ccccn2c1C(=O)c1ccc(NN)c([N+](=O)[O-])c1	-7.0	0.7%	-28%	21%	-1.2	8.4%	?
CCc1nc(SCC(=O)c2cccs2)c2oc3ccccc3c2n1	2.5	-1.6%	35µM*	?	1.0	.	23%
COCCNc1nnc(Cc2ccccc2)c(=O)[nH]1	0.6	.	11%	6%	-1.7	1.4%	1%
O=C(O)/C=C/C(=O)Nc1ccc(NC(=O)c2ccccc2)c(Cl)c1	0.0	.	56µM*	11%	1.3	-1.4%	22%
O=C(CSc1nnc2ccccn12)NC(=O)NC1CCCCC1	2.6	-7.1%	13%	14%	1.0	-0.2%	?
Clc1ccc(Cn2c(/C=C/c3ccco3)nc3ccccc32)cc1	8.9	35µM*	40µM*	-7%	0.2	30%	1%
Cc1cc(Cl)ccc1OC(C)C(=O)NCCc1ccc2c(c1)OCCO2 (stereo unspecified)	5.0	-0.8%	-22%	-12%	-3.4	-1.4%	-17%
CCn1cc(CCCC(=O)NCc2ccc(OC)cc2)c2ccccc21	0.2	-16%	9%	-22%	13	-2.0%	9%
